High-throughput results from PubChem.
HIV TAR-Tat = HIV-1 TAR-Tat binding disruption; HIV-1 TAR RNA, Tat peptide displacement FRET; hits give high values; z-score (no concentration beside the values); 0.6% of 100,000 active; AID 1259389;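 further: score is relative to mean and SD of negative controls; some compounds called inactive have numbers as strong as hits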
CDC25B CDK2 inh = human CDC25B-CDK2/CyclinA binding inhibition. P30305+P24941. HTRF CDC25B-CDK2/CyclinA binding, anti-His/anti-Flag; hits give high values. z-score (no concentration beside the values). 0.72% of 94,000 active. AID 1259370;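 further: score is relative to mean and SD of negative controls; strong numbers were not always called active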
Active calls of the source: *; . = not tested or not shown.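 How the source made its calls: active means z-score from 3 up in half or more of its runs; inactive means the rest.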 Hits appear at their usual frequency, and some 0.87% of all compounds hit somewhere here.

SMILES	HIV TAR-Tat	CDC25B CDK2 inh
O=C1c2ccccc2C(=O)N1CCSCc1cccc(C(F)(F)F)c1	.	-1.3
CCN1C(=O)C(O)(CC(=O)c2cccs2)c2ccccc21 (centres undefined)	0.4	-2.4
CCCCNC(=O)C(CC)n1nc(C)c2sc3ccccc3c2c1=O (centres undefined)	2.9	-1.7
Cc1nnc(SCCn2c(N3CCN(c4ccccc4)CC3)nc3c2c(=O)[nH]c(=O)n3C)s1	0.14	-0.02
OCC#CCSc1nnc(-c2ccc(Cl)cc2)o1	-0.79	-0.82
Cc1ccc(C)c(CN2CCCN(Cc3ccc(F)cc3)S2(=O)=O)c1	-0.02	.
COc1ccc(OC)c(-c2[nH]c3c(=O)n(C)c(=O)n(C)c3c2O)c1	.	-2.2
CC(C)c1ccc(CNCCCSc2nnnn2-c2ccccc2)cc1	-0.47	0.16
COC(=O)c1csc(S(=O)(=O)N2CCCC2)c1OC	.	-2.5
CCOC(=O)C/C(=N/Nc1ccccc1[N+](=O)[O-])OCC	.	2.6
COc1cc(NC(=O)C(C)CS(=O)(=O)c2ccc3c(c2)NC(=O)C(C)S3)cc(OC)c1 (centres undefined)	15*	.
COc1ccc(Cc2nnc3c4cnn(-c5ccc(C)cc5)c4ncn23)cc1	-1.4	-0.91
CC(=O)N1CCc2cc(Br)cc(S(=O)(=O)NCCCN3CCCC3)c21	.	0.81
COc1ccc(S(=O)(=O)Nc2c(C)nc3sccn3c2=O)cc1	1.1	0.12
CN(C(=O)Cc1c(C(=O)O)[nH]c2ccccc12)c1ccc(Br)cc1	.	-0.1
Cc1nn(-c2ccc3nnc(C4CCCCC4)n3n2)c(C)c1CCC(=O)O	-0.36	-2.1
CCCCNS(=O)(=O)c1ccc2c(c1)CCN2C(=O)CCC(=O)O	0.53	0.88
C=C(C)Cn1c(SCC(=O)Nc2nccs2)nc2c(c1=O)C1(CCCC1)Cc1ccccc1-2	0.21	-0.94
Cc1ccc(-c2nc(SCC(=O)N3CCc4ccccc43)c3c(=O)n(C)c(=O)n(C)c3n2)cc1	0.44	.
COc1ccc(N2C(=O)C3N=NN(Cc4ccc(OC)c(Br)c4)C3C2=O)cc1 (centres undefined)	1.7	-0.59

Given field by field: entries from further up.
Structure: CC(=O)N1CCc2cc(Br)cc(S(=O)(=O)NCCCN3CCCC3)c21
  HIV TAR-Tat = . | CDC25B CDK2 inh = 0.81
Structure: COc1ccc(S(=O)(=O)Nc2c(C)nc3sccn3c2=O)cc1
  HIV TAR-Tat = 1.1 | CDC25B CDK2 inh = 0.12
Structure: CN(C(=O)Cc1c(C(=O)O)[nH]c2ccccc12)c1ccc(Br)cc1
  HIV TAR-Tat = . | CDC25B CDK2 inh = -0.1
Structure: Cc1nn(-c2ccc3nnc(C4CCCCC4)n3n2)c(C)c1CCC(=O)O
  HIV TAR-Tat = -0.36 | CDC25B CDK2 inh = -2.1

(further entries)
SMILES	HIV TAR-Tat	CDC25B CDK2 inh
CCOc1ccc(C2C=C(C(=O)O)Nc3ncnn32)cc1 (centres undefined)	0.1	-0.6
Cc1nc(C(F)(F)F)ccc1C(=O)NC1CCCCNC1=O (centres undefined)	.	-2.3
C=CCSc1sc(-c2ccccc2)nc1[P+](c1ccccc1)(c1ccccc1)c1ccccc1	.	-0.72
COc1cc(C)c(S(=O)(=O)N2CCN(c3cc(N4CCCCC4)nc(C)n3)CC2)cc1C	0.32	-1.4
Cc1cccc(N(C)c2nc3ccccc3n3c(C)nnc23)c1	1.8	0.36
CCOC(=O)c1c(S(=O)(=O)N(CCOC)Cc2cccs2)c(C)n(C)c1C	0.86	.
Cc1ccc2c(c1)NC(=O)C(CC(=O)O)O2 (centres undefined)	0.47	-0.86
Cc1ccc(CCNC(=O)C2CCN(C(=O)c3cc4sccc4n3C)CC2)cc1	.	-1.2
O=c1onc2n1-c1cc(Br)ccc1OC2	.	-0.94
CC1(C)CCc2cc(/C=C(\C#N)C(=O)c3cccc(C(F)(F)F)c3)ccc2O1	.	-2
COc1nc2c(C)cccc2cc1-c1noc(-c2cccnc2)n1	3.9	-0.54
O=c1ccc(-c2ccccc2)nn1Cc1nnc(SCc2ccccc2)o1	-0.48	.
CC(C)COC(=O)CSc1nc(-c2ccc(Cl)cc2)c(C#N)c(=O)[nH]1	-0.02	-0.16
Cn1c(-c2ccc(F)cc2)cnc1NCc1ccccc1F	-1	-0.33
Cc1nc2c(C)cccn2c(=O)c1Cc1nnc(SCC(=O)Nc2cc(F)ccc2F)n1C	-0.38	-0.18
CCCOc1ccc(-c2[nH]ncc2Oc2ccccc2)c(O)c1	-1.3	-0.97
CC(C)CN(CC(C)C)C(=O)CN(C)S(=O)(=O)c1cccc2nsnc12	-0.34	0
CC(NC(=O)c1cn(-c2ccc(F)cc2)nn1)c1cccs1 (centres undefined)	-0.31	-0.72
O=C(CCSc1nc(-c2ccc3c(c2)OCO3)cc(C(F)(F)F)n1)NC1CC1	0.8	-2
CCC1Sc2ccc(S(=O)(=O)N3CCN(c4ccccc4)CC3)cc2NC1=O (centres undefined)	-0.31	.
Cn1c(=O)c2c(-c3ccc(C(C)(C)C)cc3)c(NCc3ccccc3)oc2n(C)c1=O	1.2	.
Cc1cccc(Cn2nc(C(C)(C)C)cc2C(=O)N2CCOCC2)c1	.	-1.1
CC(C)Cn1c(CN2CCN(c3cccc(Cl)c3)CC2)nc2c1c(=O)n(C)c(=O)n2C	.	-2
COc1cc(NC(=O)CSc2nc3c(c(=O)[nH]2)CCC3)cc(OC)c1	1.6	0.71
O=C1c2ccccc2C(NCCc2ccccc2)N1CCc1ccccc1 (centres undefined)	.	-0.2
COc1cc(C(=O)NCC2CCCO2)c(OC)cc1C(=O)NCC1CCCO1 (centres undefined)	0.02	-0.63
Cn1cc(S(=O)(=O)N2CCc3ccccc32)cc1C(=O)Nc1cccnc1	-0.4	.
CCCSc1nc(C)cc(C)c1C(N)=O	0.21	-2
C=CCNc1oc(/C=C/c2ccc(OCC)cc2)nc1C#N	5.3	-1.9
CCCC12CN3CC(CCC)(CN(C1)C3c1ccc(F)cc1)C2=O (centres undefined)	-1.3	-0.58
CCOC(=O)NC(=S)NCCCn1ccnc1	.	-3.2
COc1ccccc1Oc1c(C)oc2cc(O)ccc2c1=O	0.8	-0.01
c1ccc(Cn2c(CN3CCOCC3)nc3ccccc32)cc1	-0.22	-1
N#Cc1ccccc1Cn1c(=O)n(Cc2ccccn2)c(=O)c2sc3ccccc3c21	.	-2.3
O=C(Cc1ccccc1)N1N=C(c2cccc(Br)c2)CC1(O)C(F)(F)F (centres undefined)	.	-1.7
O=C(c1ccc(Cn2c(=O)c(=O)[nH]c3cccnc32)cc1)N1CCN(C(=O)c2ccco2)CC1	1.3	.
Cc1nn(C(=O)c2c(Cl)cnn2C)c(C)c1Br	.	-2
Cc1cc(-c2onc(C)c2C(=O)Oc2ccc(Cl)cc2)no1	.	-1.3
COc1ccc(N)c2nc(C)c(C)nc12	-1.7	0.29
CCCCN1C(=O)C2(/C(=C(/O)c3ccc(C)c(F)c3)C(=O)C(=O)N2CCN(C)C)c2ccccc21 (centres undefined)	0.31	0.36

The list goes on; it opens with the five that closed the last part.
SMILES	HIV TAR-Tat	CDC25B CDK2 inh
O=C(c1ccc(Cn2c(=O)c(=O)[nH]c3cccnc32)cc1)N1CCN(C(=O)c2ccco2)CC1	1.3	.
Cc1nn(C(=O)c2c(Cl)cnn2C)c(C)c1Br	.	-2
Cc1cc(-c2onc(C)c2C(=O)Oc2ccc(Cl)cc2)no1	.	-1.3
COc1ccc(N)c2nc(C)c(C)nc12	-1.7	0.29
CCCCN1C(=O)C2(/C(=C(/O)c3ccc(C)c(F)c3)C(=O)C(=O)N2CCN(C)C)c2ccccc21 (centres undefined)	0.31	0.36
CC(=O)Nc1c2n(c3ccc(F)cc13)CC(C)(C(=O)NCCC(C)C)N(C1CCCCC1)C2=O (centres undefined)	1.3	.
CCOC(=O)CSc1nc(N)c2c3c(sc2n1)COC(C)(CC)C3 (centres undefined)	-0.17	-3.7
Cc1nc2nc(Cc3cccc(F)c3)nn2c(NCc2ccc(F)cc2)c1C	0.79	.
O=C(c1ccccc1)N(c1ccc2oc(=O)sc2c1)S(=O)(=O)c1cccc2cccnc12	.	-2.1
O=c1c(Cl)c2oc3ccccc3nc-2c2ccccc12	.	-1.5
Cc1nc(-c2c(-c3ccccc3)noc2C)cs1	.	-2.4
Cc1nccc(-c2cccc(NC(=O)Nc3ccc(Cl)cc3)c2)n1	.	-1.4
N/C(=N\OC(=O)COc1ccc2ccccc2c1)c1ccncc1	.	-9.4
O=C(NCCC1=CCCCC1)C1CCN(c2cnccn2)CC1	1.1	1.9
N#Cc1ccsc1NC(=O)CSCC(=O)O	.	-4.8
COc1ccc(Cc2nc3c4cnn(-c5cccc(F)c5)c4ncn3n2)cc1	2.3	-1.7
O=C(Cn1ncc2c3ccccc3n(Cc3ccccc3)c2c1=O)NCCCc1ccccc1	-0.56	1.3
O=C1c2cccc3cccc(c23)C(=O)N1CCS(=O)(=O)OCC(F)(F)C(F)F	.	-1.5
CC(C)(C)C(C)(C#N)Nc1ccc(Cl)cc1 (centres undefined)	.	-1.8
CCC(C(=O)NCCCN1CCN(CC)CC1)n1nc(C)n2c(cc3occc32)c1=O (centres undefined)	3	-1.4
O=C(Oc1ccccc1)C1=CC2C3C(=O)N(c4ccccc4Cl)C(=O)C3C1C1C(=O)N(c3ccccc3Cl)C(=O)C21 (centres undefined)	.	-0.19
CSCCC(NS(=O)(=O)c1ccc2c(c1)oc(=O)n2C)C(=O)NC1CCCc2ccccc21 (centres undefined)	2.2	.
CCCCN1C=C(OC(=O)COc2ccccc2)c2ccccc2S1(=O)=O	1.1	-1.7
OC(CNCc1ccco1)c1ccccc1 (centres undefined)	.	-1.2
CN(C)C(=O)CCCc1nc(-c2ccc(Cl)cc2)no1	-1.4	0.62
O=C1NC(c2ccccc2Cl)C(C(=O)c2ccc(Cl)cc2)C(O)(C(F)(F)F)N1 (centres undefined)	.	0.12
COCCNc1nc(Nc2ccc(C)cc2C)c2cnn(C)c2n1	1.5	.
CCOc1ccc(-c2noc(-c3nnn(-c4cccc(CC)c4)c3N)n2)cc1	-0.23	.
CCSc1nc2c(c(=O)[nH]1)C(c1ccc(Br)cc1)C1=C(CCCC1=O)N2 (centres undefined)	-0.81	-1.1
O=C(c1ccco1)N1CCN(CC(O)Cn2c3ccc(Cl)cc3c3cc(Cl)ccc32)CC1 (centres undefined)	.	-0.48
Fc1ccc(-c2csc(-c3nc(-c4ccccc4)cs3)n2)cc1	0.27	.
Cc1ccc(Nc2nc(N3CCCC3)nc3c2cnn3C)c(C)c1	0.6	.
COc1ccc(CCNc2ncnc3sc4c(c23)CC(C)CC4)cc1OC (centres undefined)	1.1	.
C=CCN1C(=O)C(O)(CC(=O)c2cccc(OC)c2)c2cc(Br)ccc21 (centres undefined)	-0.2	0.15
COc1cc(OC)c(NC(=O)N2CCN3CCCCC3C2)cc1Cl (centres undefined)	1.4	.

6 entries out of the list, ordered by length of the SMILES, high to low:
SMILES	HIV TAR-Tat	CDC25B CDK2 inh
O=C(c1ccco1)N1CCN(CC(O)Cn2c3ccc(Cl)cc3c3cc(Cl)ccc32)CC1 (centres undefined)	.	-0.48
O=C1NC(c2ccccc2Cl)C(C(=O)c2ccc(Cl)cc2)C(O)(C(F)(F)F)N1 (centres undefined)	.	0.12
C=CCN1C(=O)C(O)(CC(=O)c2cccc(OC)c2)c2cc(Br)ccc21 (centres undefined)	-0.2	0.15
CCOc1ccc(-c2noc(-c3nnn(-c4cccc(CC)c4)c3N)n2)cc1	-0.23	.
COc1ccc(CCNc2ncnc3sc4c(c23)CC(C)CC4)cc1OC (centres undefined)	1.1	.
Fc1ccc(-c2csc(-c3nc(-c4ccccc4)cs3)n2)cc1	0.27	.

Carrying on.
SMILES	HIV TAR-Tat	CDC25B CDK2 inh
CCCS(=O)(=O)N1CCCc2ccc(NS(=O)(=O)c3ccc(C)s3)cc21	2	.
CCc1nn(CC(=O)NCCCN2CCN(CC)CC2)c(=O)c2cc3occc3n12	-0.04	-0.22
CCC(C)NC(=O)CCc1nnc2ccc(N3CCCC3)nn12 (centres undefined)	1.6	.
O=C(CCC(=O)N1Cc2ccccc2Oc2ncccc21)NCc1cccs1	2.4	.
O=C(c1oc2ccccc2c1N1CCCCC1)N1CCCCC1	.	-1.8
CCOc1nc2cnccc2n(CCN2CCOCC2)c1=O	0.96	.
Cc1oc2ncnc(N3CCOCC3)c2c1C(=O)Nc1ccc(F)cc1F	0.19	.
CC(C)(C)c1ccc(C(=O)N2CCN(C(=O)c3nonc3N)CC2)cc1	5.2	0.74
Fc1ccccc1C(Nc1ccccc1)c1nnc(-c2ccccc2)o1 (centres undefined)	0.65	.
CC1CSc2ccc(S(=O)(=O)N3CCC(N(C)CCCN4CCOCC4)CC3)cc2NC1=O (centres undefined)	1.3	.
CCOC(=O)c1c(C)nsc1N	.	-1
O=C1c2cccnc2C(=O)N1Cc1ccc(F)cc1S(=O)(=O)Nc1cccc(-c2ccno2)c1	-0.72	.
COc1ccc(OC)c(-c2noc(Nc3ccc(F)c(Cl)c3)n2)c1	1.5	.
Cn1c(=O)n(C)c2cc(CNCCN3CCOCC3)ccc21	0.68	-0.66
Cc1c(C(=O)N2CCCCC2)sc2ncn(CC(=O)N3CCCCC3C)c(=O)c12 (centres undefined)	.	-1.4
COc1ccc(OC)c(CNc2nc3ccccc3c3nnc(C)n23)c1	-0.38	.
NC(=S)c1ccc(N2CCC(C(F)(F)F)CC2)nc1	.	-1.6
CC1=CC(C)(C)N(S(=O)(=O)c2ccc(C)cc2)c2ccc(C)cc21	0.28	-2.9
O=C(NC1CCN(Cc2ccccc2)CC1)C1CCN(c2nccc(C(F)(F)F)n2)CC1	.	-3.3
CC1=C(C(=O)NCCCN2CCCC(C)C2)C2(CCN(S(C)(=O)=O)CC2)OC1=O (centres undefined)	0.16	.
Cc1ccc(N(C)C(=O)[C@H]2[C@@H]3C[C@@H]4[C@H]2C(=O)O[C@@H]4C3)cc1	1.1	-0.92
CCOc1cc(C2CC(=O)Nc3cc4c(cc32)OCO4)cc(Cl)c1O (centres undefined)	.	-0.37
O=S(=O)(NCCS(=O)(=O)N1CCN(c2ccc(F)cc2)CC1)c1cc(F)ccc1F	-0.06	.
